Compound activity (PubChem BioAssay)
Rce1 inh: blocks yeast Ras-converting enzyme; Q03530; yeast membranes, quenched prenylated peptide cleavage fluorescence; calls only; 290,000 compounds, 0.27% hits;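 active = fall in fluorescence gain of 50% or more versus controls, with final raw signal at or below 3038400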;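 note: plate controls were neutral control wells for no effect and wells lacking membranes for full effect; tested at 10 µM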
Target sequence (Q03530 whole entry, looked up): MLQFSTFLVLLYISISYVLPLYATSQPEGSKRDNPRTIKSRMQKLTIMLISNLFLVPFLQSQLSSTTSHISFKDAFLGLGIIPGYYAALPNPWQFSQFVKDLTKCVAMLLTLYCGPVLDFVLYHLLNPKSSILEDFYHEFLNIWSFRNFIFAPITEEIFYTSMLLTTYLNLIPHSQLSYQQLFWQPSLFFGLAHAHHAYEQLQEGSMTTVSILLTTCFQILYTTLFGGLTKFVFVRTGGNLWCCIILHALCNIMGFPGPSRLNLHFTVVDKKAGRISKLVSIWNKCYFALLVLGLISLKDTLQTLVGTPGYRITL
MT1-MMP act inh: inhibitors of human MT1-MMP activation; P50281; HT1080 RFP-PRO-GFP cells, GFP/RFP ratio fluorescence, overnight; percent of plate control window, DMSO zero; GFP/RFP ratio change, % at 20 µM; 360,000 compounds, 0.061% hits; AID 651647;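 active = GFP/RFP ratio change of at least 30% with cell ATP level not reduced by more than half and red fluorescence within 50% of control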; note: strong numbers were not always called active
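Material: RFP-PRO-GFP reporter HT1080 cells. Dosing: single-point 20 µM compound, 1% DMSO. Controls: DMSO and RFP-L50D-GFP cell wells. Timing: cells overnight before dosing, compound overnight, 37 °C, 5% CO2. Measure: GFP/RFP fluorescence ratio.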
PABP polyA inh: blocks human PABP binding to poly(A) RNA | P11940 | fluorescence polarization | inhibition, % at 35 µM | 290,000 compounds, 1% hits | AID 2014;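 active = 50% or more with normal probe brightness, or confirmed in later tests; about a fifth of its hits are not listed in these tables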;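 note: calls also rest on retests at 20 µM and on dose response follow-up; controls were probe without protein and protein plus probe with vehicle; some compounds called inactive have numbers as strong as hits; many hits fall short of the cut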
Target sequence (P11940 whole entry, looked up): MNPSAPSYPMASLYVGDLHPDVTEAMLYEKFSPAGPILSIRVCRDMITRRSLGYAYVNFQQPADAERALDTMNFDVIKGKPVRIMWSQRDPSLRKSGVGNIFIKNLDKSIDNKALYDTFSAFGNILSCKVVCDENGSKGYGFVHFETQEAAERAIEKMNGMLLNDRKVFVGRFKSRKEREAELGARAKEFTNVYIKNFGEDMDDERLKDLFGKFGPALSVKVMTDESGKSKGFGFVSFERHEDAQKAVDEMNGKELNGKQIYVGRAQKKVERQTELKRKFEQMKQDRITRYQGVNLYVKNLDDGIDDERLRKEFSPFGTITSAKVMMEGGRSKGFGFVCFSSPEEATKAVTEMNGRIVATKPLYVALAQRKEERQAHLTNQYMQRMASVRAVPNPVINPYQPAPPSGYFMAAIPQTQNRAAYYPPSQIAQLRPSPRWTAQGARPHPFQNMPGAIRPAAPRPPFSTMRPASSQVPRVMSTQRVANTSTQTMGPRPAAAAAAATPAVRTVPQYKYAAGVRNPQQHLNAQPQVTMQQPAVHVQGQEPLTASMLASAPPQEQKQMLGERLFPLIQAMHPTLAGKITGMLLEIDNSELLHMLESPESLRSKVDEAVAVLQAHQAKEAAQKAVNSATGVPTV
UUG fidelity: alters start codon recognition fidelity in yeast; S. cerevisiae UUG-firefly luciferase reporter, luminescence/redox ratio; activity score, % at 18.7 µM; 350,000 compounds, 0.13% hits; AID 602363;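 active = replicate mean at a twofold rise or more, about +100% in these data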;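 note: firefly luciferase made from a UUG start codon reports start codon fidelity; reporter light over untreated wells divided by growth signal over untreated wells; some hits fall short of that in this replicate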
Env fusion inh: blocks HIV Env-driven cell-cell fusion. inhibition, % at 12.3 µM. 360,000 compounds, 1.1% hits. HeLa-JRFL Env/CEM21 cell fusion, luciferase;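 active = mean replicate inhibition score of at least 50 and every replicate individually at or above 50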;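 note: 0% = plate neutral controls and 100% = maraviroc near 300 nM; one replicate is shown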
CSC inhib: blocks cancer stem cells; cancer stem cell-like cells viability, luminescence; inhibition, % at 7.5 µM; 300,000 compounds, 1.1% hits; AID 2717;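 active = mean at 75% or more and at least half the replicates too; tested in HMLE shEcad cells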;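 note: 0% = median of negative and 100% = median of positive control wells; the first replicate is given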
eIF4H inh: inhibitors of RNA binding by human eIF4H. Q15056. eIF4H fluorescence polarization binding assay. inhibition, % at 35 µM. 290,000 compounds, 0.94% hits. AID 2012;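 active = 50% or more with normal probe brightness, or confirmed in later tests; about a fifth of its hits are not listed in these tables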;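 note: calls also rest on retests at 20 µM and on dose response follow-up; 0% = protein and probe with vehicle and 100% = probe without protein; strong numbers were not always called active; many hits fall short of the cut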
eIF4H inh retest: further read-out of eIF4H inh, marked with its call; inhibition, %; compound at 20 µM; confirmation average;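 mean of two retest wells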
PABP polyA inh retest: recorded beside PABP polyA inh, whose call it bears; inhibition, %; compound at 20 µM; confirmation repeats;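 mean of two retest wells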
MT1-MMP act inh RFP: second read-out of MT1-MMP act inh, no call of its own (marks repeat the call); RFP signal change, %; measured here: RFP expression control read;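 0 = vehicle wells; hits needed this value within 50% of zero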
The depositor's hits bear a star; i = inactive; nt = not tested or not shown; & = joins results of further samples. Not all compounds are listed. The share of hits here may be higher or lower than overall.

SMILES | Rce1 inh | MT1-MMP act inh | MT1-MMP act inh RFP | PABP polyA inh | UUG fidelity | Env fusion inh | CSC inhib | eIF4H inh | others
CO[C@H]1O[C@H](CBr)[C@@H](OC(=O)c2ccccc2)[C@H](O)[C@H]1O | i | 0 | 3 | nt | -19 | 7 | -4 | nt
O=C(OCCN1CCCCC1)c1ccc(O)cc1 | i | -3 | 3 | 3 | -29 | -4 | -12 | 13
CC(NC(=O)c1ccc2c(=O)n3c(nc2c1)CCC3)c1ccc(S(N)(=O)=O)cc1 (centres undefined) | i | -1 | 2 | nt | nt | -25 | -3 | nt
O=S(=O)(NC1CCCCC1N1CCN(c2ccccc2F)CC1)c1ccccc1 (centres undefined) | i | -1 | -3 | 6 | -24 | -18 | 0 | -6
CC(=O)N1CCn2c3c(c(=O)c4cc(C)ccc42)CCC31 (centres undefined) | nt | -9 | 1 | 29 | 19 | -11 | 0 | 16
CCCCNC(=O)[C@H]1C[C@H]1[C@@H](O)[C@H](CO)NC(=O)[C@H](CC(C)C)NC(=O)OC(C)(C)C | i | 1 | 4 | 0 | -11 | nt | 7 | 0
Cn1c(SCC(=O)c2ccc(O)c(O)c2)nnc1-c1cccs1 | i | -3 | 0 | 33* | nt | 2 | -2 | 50* | eIF4H inh retest=94*;PABP polyA inh retest=77*
CC(=O)Nc1nc2n(n1)C(c1ccccc1)C=C(c1ccccc1)N2 (centres undefined) | i | -31 | 2 | 39 | -12 | nt | -9 | 18
Fc1ccc(SCCc2ccccn2)cc1 | i | 6&-2 | 5&0 | 4&-1 | -5&-17 | 0&-11 | -3 | -2&-5
COc1ccc(/C=N/N(C(C)=O)c2nc(-c3ccc(C)cc3)cs2)cc1 | i | 2 | -5 | -3 | 7 | -33 | -2 | 1
COc1cc(NC(=O)c2ccc3c(c2)OCCO3)ccc1NC(=O)c1ccccc1Cl | i | -4 | -4 | 8 | 0 | 1 | 11 | -10
Cc1csc(=O)n1CC(=O)OCC(=O)Nc1cc(Cl)ccc1[N+](=O)[O-] | i | 0 | 4 | 7 | -13 | -10 | -12 | 6
CCOc1cc(C(=O)O)cc(Cl)c1OC | i | 4 | 2 | -6 | -19 | nt | nt | -4
CC(=Nc1ccccc1C)C1=C(O)CSC1=O | i | -6 | -2 | 14 | -3 | nt | 0 | 7
CCOc1ccccc1C(=O)Nc1nccs1 | i | 1 | 10 | -3 | -18 | nt | -2 | 6

Entries shown so far that contain fluorine (2):
SMILES | Rce1 inh | MT1-MMP act inh | MT1-MMP act inh RFP | PABP polyA inh | UUG fidelity | Env fusion inh | CSC inhib | eIF4H inh | others
O=S(=O)(NC1CCCCC1N1CCN(c2ccccc2F)CC1)c1ccccc1 (centres undefined) | i | -1 | -3 | 6 | -24 | -18 | 0 | -6
Fc1ccc(SCCc2ccccn2)cc1 | i | 6&-2 | 5&0 | 4&-1 | -5&-17 | 0&-11 | -3 | -2&-5

Other structures.
SMILES | Rce1 inh | MT1-MMP act inh | MT1-MMP act inh RFP | PABP polyA inh | UUG fidelity | Env fusion inh | CSC inhib | eIF4H inh | others
Cc1ccc(NC(=O)c2c(Cl)nc3ccccn23)cc1 | i | 3 | 3 | -10 | nt | -28 | -8 | -1
O=C(NCCC1CCCCN1S(=O)(=O)c1cccs1)C(=O)Nc1ccc(F)cc1F (centres undefined) | i | -5 | -11 | nt | 29 | nt | 49 | nt
Nc1nonc1-n1nnc(C(=O)N/N=C/c2c[nH]c3ccccc23)c1-c1ccccc1 | i | -2 | -1 | 8 | 1 | nt | 1 | -10
CCOC(=O)C1C(=O)NC(N2CCOCC2)=NC1C(C)C (centres undefined) | i | -3 | 4 | -2 | -11 | -24 | -11 | -5
O=C(N/N=C/c1ccco1)c1cc(-c2cccc3ccccc23)n[nH]1 | i | 6 | 8 | -4 | -18 | -121 | 13 | 0
C=CCN1C(=O)/C(=C/c2ccc(OCC(=O)O)cc2)S/C1=N/c1nccs1 | i | 2 | 1 | 10 | nt | 4 | -7 | 6
COc1cccc(NC(=O)CSc2nnc3ccc(-c4ccncc4)nn23)c1 | i | -1 | 2 | nt | -13 | -167 | nt | nt
CC(=O)c1ccc2c3c(cc(C)c2c1)CCCC3 | nt | -4 | 3 | nt | -12 | -111 | nt | nt
COC(=O)c1ccc(OC(=O)C2CC(=O)N(c3ccc(C)cc3C)C2)cc1 (centres undefined) | i | -1 | 1 | 0 | -2 | -7 | -17 | 2
C/C(=N\NC(=O)Cn1nc(C)c([N+](=O)[O-])c1C)c1ccc(Cl)s1 | i | -1 | -3 | -12 | nt | 0 | 1 | -4
Cc1ccc(C(=O)N2CCCC(C(=O)c3ccc(Oc4ccccc4)cc3)C2)cn1 (centres undefined) | i | -6 | -22 | 8 | -1 | 39 | 18 | -7
CS/C(=C\C(=O)c1ccco1)Nc1ccccc1Cl | i | -4 | 0 | -7 | -5 | -7 | -7 | -2
CC(C)CCNC(=O)c1cccc(C(=O)NCCC(C)C)c1 | nt | 14 | 1 | -6 | -16 | -36 | 3 | -2
COc1cc(-c2nnc(CSc3nnc(Nc4ccc(C(C)C)cc4)s3)o2)cc(OC)c1OC | i | 4 | -13 | -2 | nt | 9 | 58 | 5
CN1CCN(Cc2cn[nH]c2-c2ccc(F)cc2F)[C@@H](c2ccccc2)C1 | i | -5 | -2 | -4 | nt | -6 | -25 | -2
CCn1c(=O)cc(OCC(=O)N2CCN(c3ccc(F)cc3)CC2)c2ccccc21 | i | 7 | 4 | 4 | nt | 13 | -1 | 0
Cc1cc(C)c(S(=O)(=O)NCc2cccnc2)cc1C | i | 1 | -1 | 14 | -12 | -42 | -10 | -12
CC(C)C(C)NC(=O)CN1C(=O)NC2(CCc3ccccc3C2)C1=O (centres undefined) | i | -1 | 1 | -3 | nt | 14 | -10 | 3
CCc1ccc2c(c1)C(=O)C(=O)N2CC(=O)Nc1ccc(NC(=O)c2ccccn2)cc1 | nt | 4 | 1 | -5 | nt | -16 | -22 | -2
CS(=O)(=O)N1N=C(c2ccccc2)CC1c1ccc2c(c1)OCO2 (centres undefined) | i | -54 | -1 | -3 | nt | -9 | 2 | 5
COc1ccc(-c2cc(C(=O)N3CCN(c4ccccc4F)CC3)c3ccccc3n2)c(OC)c1 | i | -1 | -2 | -7 | -3 | 27 | 29 | -10
COc1ccc([C@H]2CC(=O)C=C(c3ccc(SC)cc3)C2)cc1 | nt | 2 | -1 | nt | -5 | -40 | 2 | nt
COC(=O)C(NC(=O)CCc1c(C)nc2ncnn2c1C)C(C)C (centres undefined) | i | 3 | 2 | -3 | -12 | -49 | -17 | -11
O=C(Nc1c[nH]c(=O)[nH]c1=O)c1cc([N+](=O)[O-])cc([N+](=O)[O-])c1 | i | -3 | 3 | -3 | -20 | 9 | -12 | -3
O=C(c1cc(COc2ccccc2)on1)N1CCCC(CN2CCOCC2)C1 (centres undefined) | i | 3 | 0 | -22 | -10 | -1 | -14 | -11
CC(=O)N1CCN(Cc2cc(=O)oc3cc(C)ccc23)CC1 | nt | 3 | 6 | nt | 3 | -19 | nt | nt
CC(C)=NNc1nc(-c2ccc([N+](=O)[O-])cc2)cs1 | i | -1 | -13 | 11 | nt | -7 | 18 | -4
Cc1ccc[n+](CC(=O)c2ccc(Br)cc2)c1C | i | -2 | -4 | 37 | -1 | -12 | 7 | -2
O=C(CCNS(=O)(=O)c1ccc(Br)s1)Nc1ccc(Cl)cc1 | i | 3 | 2 | -3 | -5 | 17 | 3 | -3
CCOc1ccccc1C(=O)N1CCN(C(c2ccccc2)c2ccccc2)CC1 | i | -25 | -14 | -13 | -13 | nt | 23 | 0

An excerpt from above in order of number of heavy atoms, lowest first.
SMILES | Rce1 inh | MT1-MMP act inh | MT1-MMP act inh RFP | PABP polyA inh | UUG fidelity | Env fusion inh | CSC inhib | eIF4H inh | others
CC(=Nc1ccccc1C)C1=C(O)CSC1=O | i | -6 | -2 | 14 | -3 | nt | 0 | 7
CCc1ccc2c(c1)C(=O)C(=O)N2CC(=O)Nc1ccc(NC(=O)c2ccccn2)cc1 | nt | 4 | 1 | -5 | nt | -16 | -22 | -2
COc1cc(-c2nnc(CSc3nnc(Nc4ccc(C(C)C)cc4)s3)o2)cc(OC)c1OC | i | 4 | -13 | -2 | nt | 9 | 58 | 5

Of the compounds above, these have a nitro group on carbon.
SMILES | Rce1 inh | MT1-MMP act inh | MT1-MMP act inh RFP | PABP polyA inh | UUG fidelity | Env fusion inh | CSC inhib | eIF4H inh | others
Cc1csc(=O)n1CC(=O)OCC(=O)Nc1cc(Cl)ccc1[N+](=O)[O-] | i | 0 | 4 | 7 | -13 | -10 | -12 | 6
C/C(=N\NC(=O)Cn1nc(C)c([N+](=O)[O-])c1C)c1ccc(Cl)s1 | i | -1 | -3 | -12 | nt | 0 | 1 | -4
O=C(Nc1c[nH]c(=O)[nH]c1=O)c1cc([N+](=O)[O-])cc([N+](=O)[O-])c1 | i | -3 | 3 | -3 | -20 | 9 | -12 | -3
CC(C)=NNc1nc(-c2ccc([N+](=O)[O-])cc2)cs1 | i | -1 | -13 | 11 | nt | -7 | 18 | -4

(continued)
SMILES | Rce1 inh | MT1-MMP act inh | MT1-MMP act inh RFP | PABP polyA inh | UUG fidelity | Env fusion inh | CSC inhib | eIF4H inh | others
O=C(N/N=C/c1cc2ccccc2nc1Cl)c1ccncc1 | i | 2 | -2 | 4 | -5 | 14 | -1 | -6
CCCCC(NC(=O)Cc1c(C)c2cc3c4c(oc3cc2oc1=O)CCCC4)C(=O)O (centres undefined) | i | 4 | 4 | 17 | -3 | -1 | -6 | -3
Cc1cn(C2OC(COC(=O)c3ccccc3)C(OC(=O)c3ccccc3)C2OC(=O)c2ccccc2)c(=O)[nH]c1=O (centres undefined) | i | -56 | -28 | -2 | -17 | nt | nt | 6
O=C1Nc2ccccc2N(O)N1c1ccc(S(=O)(=O)N2CCCCCC2)cc1 | i | 2 | 8 | -8 | -8 | -4 | 13 | 3
Cc1cc(=O)oc2cc(Oc3ncccc3[N+](=O)[O-])ccc12 | i | -3 | -3 | 9 | nt | 3 | -4 | -3
COCCN=C1N[C@@H](c2ccccc2)C(C(=O)OC)=C(C)N1Cc1ccccc1 | i | -2 | 5 | -10 | -2 | -21 | -6 | 11
CN(C)C(=O)C(NC(=O)c1ccccc1)=C(Cl)Cl | i | 2 | 4 | -7 | -13 | -2 | -12 | 8
O=C(CCc1nc2ccccc2c(=O)[nH]1)NCc1ccccn1 | i | -3 | 1 | -2 | 3 | -34 | -3 | -1
Cc1onc(-c2c(F)cccc2Cl)c1C(=O)Nc1nnc(-c2ccccc2)s1 | i | -1 | -7 | 2 | -24 | 35 | 13 | -3
CCc1nc2cc(C)nn2c2nc3ccccc3n12 | i | 12 | 2 | -4 | -10 | nt | -6 | -16
CNS(=O)(=O)c1cccc(C(=O)OCC(=O)N2CCCC2)c1 | i | 11 | 0 | -5 | -2 | -8 | -2 | 2
Cc1ccc(NC(=O)C2C3CCCC2C3c2ccccc2)cc1 (centres undefined) | i | 2 | -2 | -7 | 0 | 16 | -14 | -1
CCOC(=O)N1CCN(C(=O)CN(C)S(=O)(=O)c2ccc(Cl)cc2)CC1 | i | 1 | -1 | 6 | -14 | -11 | -1 | -14
CCCn1c(=S)[nH]c2ccccc2c1=O | i | -7 | -2 | -4 | nt | -3 | -5 | 5
Cc1ccn(CC(=O)N2CCCC(N3CCN(c4ccc(F)cc4)CC3)C2)n1 (centres undefined) | i | -10 | -4 | 6 | -12 | 8 | nt | 12
